High-throughput results: PubChem BioAssay, SRMLSC
H5N1 CPE = MDCK cell protection from H5N1 avian flu; cytopathic effect, luminescence, 72 h; active compounds read high; no value below 0 was filed and about half of the inactive calls have no number; reference of the scale not given here; inhibition, % at 50 µM; actives 0.07% (n = 96,000); AID 740; in the data active = inhibition above about 25%
* = called active by the depositor; i = inactive.

SMILES	H5N1 CPE
CCC(c1nnnn1C1CCCCC1)N1CCN(C2CCCC2)CC1 (stereo unspecified)	0.5
Cn1c(C(C#N)/C(=N\S(=O)(=O)c2cccs2)c2ccccc2)nc2ccccc21 (stereo unspecified)	1.1
CCN(CC)S(=O)(=O)C1CCS(=O)(=O)C1 (stereo unspecified)	i
COCCNS(=O)(=O)c1cccc2cccnc12	1.8
COc1ccc(S(=O)(=O)N2CCC(C(=O)Nc3nnc(CCN4CCCCC4)s3)CC2)cc1	0.1
CCN(CCO)Cc1csc2ccc(Br)cc12	7.3
O=C(CCn1c(=O)oc2ccccc21)N1CCN(c2ccccc2Cl)CC1	i
Cc1cc(NC(=O)CC23CC4CC(C2)CC(CC(=O)Nc2cc(C)on2)(C4)C3)no1	0.4
COc1ccccc1NC(=O)CCSc1nnnn1C	i
Cc1nn(Cc2c(F)c(F)c(F)c(F)c2F)c(C)c1NC(=O)c1nn(C)cc1[N+](=O)[O-]	0.6
Cc1ccc(NCCNc2ccc(C)cc2)cc1	i
COc1ccc(CCNC(=O)C(=O)NCc2ccccc2)cc1OC	i
O=C(/C=C/c1ccc2c(c1)OCO2)NCCSCc1ccc(Cl)cc1Cl	i
O=c1c2ccccc2nc(CSc2ncnc3nc[nH]c23)n1-c1ccccc1	0.5
COc1cccc(OCC(=O)Nc2ccccc2C(N)=O)c1	3.0
COc1ccc(NC(=O)c2c(F)c(F)c(F)c(F)c2F)cc1Cl	1.0
O=C(NCCN1CCN(Cc2ccccc2)CC1)C1CC(=O)N(C2CCCC2)C1 (stereo unspecified)	0.0
O=C(/C=C/c1cccc(Cl)c1)Nc1ccncc1	1.6
O=C(NCc1cccnc1)c1cn(-c2ccccc2)nc1-c1cccs1	i
CCCC(=O)c1cc(F)c(N2CCN(C(=O)OCC)CC2)cc1C	2.5
N#Cc1ccc(N2CCCC2C(=O)O)c([N+](=O)[O-])c1 (stereo unspecified)	i
CC(=O)NC1CC2CCCC(C1)N2CC(=O)Nc1ccccc1 (stereo unspecified)	0.7
Cc1cc(N2CCN(c3ccc(F)cc3)CC2)nc2cc(O)ccc12	5.3
CCOc1ccc(S(=O)(=O)N(CC(=O)O)c2ccccc2)cc1	i
COc1cc(-c2nc(-c3ccc(NC(=O)c4ccc5c(c4)OCO5)cc3)no2)cc(OC)c1OC	0.2
CC1=CS/C(=C(/C#N)C(=O)NCc2ccco2)N1c1ccccc1	1.7
Cc1cccc(NC(=O)CSc2nnc(-c3ccncc3)n2C)c1	i
CCCOc1ccc(N2C(=O)CC(N(CCc3ccc(S(N)(=O)=O)cc3)C(C)=O)C2=O)cc1 (stereo unspecified)	i
COc1ccc(CSc2nnc(CNS(C)(=O)=O)o2)cc1	0.8
Cc1noc(C)c1COc1cccc(C(=O)Nc2ccc(OCc3ccccc3)cc2)c1	i
Cc1cccc[n+]1C1C(c2ccccc2)C(C#N)=C(C(=C=[N-])C#N)NC1(O)C1CC1 (stereo unspecified)	0.1
Cc1ccc(S(=O)(=O)Nc2nc3ccccc3nc2NCc2ccco2)cc1	2.7
COc1ccc(S(=O)(=O)N(CCc2ccccc2)CC(=O)O)cc1OC	0.5
COC(=O)CSc1nnc(-c2ccccc2O)n1-c1ccc(C)cc1	0.2
O=C1CC(c2ccccc2)n2nc(NC(=O)c3cccnc3)nc2N1 (stereo unspecified)	0.4
COc1ccc(OCc2nc(N)nc(Nc3cccc(C)c3C)n2)cc1	i
Cc1ccccc1-c1nc(-c2cccnc2)no1	i
CCCOc1ccc(N2C(=O)CC(N3CCC(C(=O)OCC)CC3)C2=O)cc1 (stereo unspecified)	i
O=C(Nc1ccccc1)O/N=C(\c1ccccc1)c1ccccn1	i
COc1ccc(OC)c(Nc2nc(C3CC3)nc3c2nnn3Cc2ccccc2)c1	i
COc1ccc(C(=O)COc2ccc(NC(C)=O)cc2)cc1	1.6
Cc1ccc(S(=O)(=O)CCc2nnc(NC(=O)c3ccccn3)s2)cc1	1.9
O=C(OCCCC(=O)N1CCOCC1)c1ccccc1	i
CC(C(N)=O)N1CC(c2ccccc2)CC1=O (stereo unspecified)	0.8
CC1Cc2ccccc2N1C(=O)c1cc2sccc2n1Cc1ccccc1 (stereo unspecified)	1.4
Cc1cccc(C(=O)Nc2ncc(CN3CCOCC3)s2)c1	i
CCOCCCNC(=O)C(c1ccc(C)cc1)N(Cc1ccc2c(c1)OCO2)C(=O)CNC(C)=O (stereo unspecified)	i
CN(C)C=Nc1nonc1-c1ncn[nH]1	i
Cn1c(N2CCCCC2)nc2c1c(=O)n(Cc1cccc(Br)c1)c(=O)n2C	2.5
COc1ccc(C(=O)N2CCCC2)cc1	0.2
Cc1ccc(OC(=O)c2ccccc2C(=O)OCC(F)(F)C(F)F)cc1	i
N=C1C(c2ccccc2)=C(O)CN1c1ccccc1N1CCOCC1	0.3
COc1ccc(S(=O)(=O)Nc2nc3n(n2)C(c2ccc(Cl)cc2)CC(=O)N3)cc1 (stereo unspecified)	i
CC(=O)Nc1cccc(Oc2cc(C#N)c(C#N)cc2N2CCCCCC2)c1	0.4
COC(=O)c1ccc(C2CC(=O)Nc3cc(OC)c(OC)c(OC)c32)cc1 (stereo unspecified)	0.5
CCOC(=O)N1CCN(C(=O)CSc2cc(C)nc3c(-c4ccccc4OC)c(C)nn23)CC1	0.6
O=C(NCc1ccc(F)cc1)c1cccc(S(=O)(=O)N2CCCC2)c1	0.6
CC(=O)Nc1ccc(NS(C)(=O)=O)cc1	i
Cc1cc(Br)ccc1NC(=O)C1CCCO1 (stereo unspecified)	i
COc1ccc(C(=O)NC(=S)NC(C)(C)C)cc1Br	i
New compounds follow.
SMILES	H5N1 CPE
CCN(C(=O)c1c(-c2ccccc2)noc1C)c1ccccc1	2.9
COc1ccc(S(=O)(=O)N(CCCN2CCOCC2)Cc2cccc3ccccc23)cc1	i
O=C(c1cc(-c2ccccc2O)on1)N1CCc2ccccc2C1	2.6
COc1cccc(C(=O)Cn2c(=O)n(CC3CCCO3)c(=O)c3ccccc32)c1 (stereo unspecified)	2.5
O=S(=O)(N1CCCCC1)N1CCCN(S(=O)(=O)N2CCCCC2)CC1	0.1
O=C(Nc1ccc(F)cc1)c1cccc2c1C(=O)N(Cc1ccccn1)C2	i
CCn1c(O)c(C=Nc2ccc(N3CCOCC3)cc2)c(=O)n(CC)c1=S	i
CCOC(=O)c1c(C)n(-c2ccc(C)cc2)c2c(C(C(C)=O)C(=O)O)c(Br)c(O)c(O)c12 (stereo unspecified)	i
CC(NC(=O)c1ccc(Cl)cc1)C(=O)N1CCCCC1 (stereo unspecified)	0.1
COc1ccc(Cl)cc1C(=O)Nc1nnn(C)n1	i
Cc1cc(C(=O)Nc2c(C)nn(Cc3ccccc3Cl)c2C)no1	i
CCCN1C2CCCC1CC(NC(=O)c1ccc(F)cc1)C2 (stereo unspecified)	i
N#CCCn1cc(/C=N/NC(=O)c2ccncc2)c(-c2ccccc2)n1	0.2
Cc1ccc2[nH]c(=O)c(CN(Cc3nnnn3Cc3ccccc3)C3CCCC3)cc2c1	2.4
O=C(CCCn1c(SCC(=O)NCC2CCCO2)nc2ccccc2c1=O)NCc1ccccc1 (stereo unspecified)	0.0
c1cn(CCCNC2=NCCCCC2)cn1	i
NC(=O)CSc1oc(-c2cccs2)nc1S(=O)(=O)c1ccccc1	0.2
CCOC(=O)C(CO)(NC(C)=O)C(=O)OCC	1.3
COc1ccc(C2NCc3ccccc3-n3cccc32)cc1 (stereo unspecified)	i
Cc1c(C(=O)OC(C)CCN(C)C)oc2ccccc12 (stereo unspecified)	i
c1ccc(CSc2nnc(NC3=NCCCCC3)s2)cc1	i
Cc1ccc(NC(=O)C(NS(=O)(=O)c2cccc3nsnc23)C(C)C)nc1 (stereo unspecified)	1.1
CCOC(=O)C1=C(Cc2ccc(C)cc2)C(=O)c2ccccc2C1=O	i
O=C(c1ccc(CN2CCOCC2)cc1)N1CCC(Cc2ccccc2)CC1	0.9
CCCn1c(SCC(=O)Nc2nnc(C)s2)nnc1-c1ccoc1C	1.0
O=C1CNC(=O)N1Cc1ccc(Br)cc1	0.1
Cc1cc(NC(=O)CCCC(=O)O)nc(C)n1	0.7
CCCC(=O)NCCc1nc2ccccc2n1CCC	1.4
S=c1nc(C2CC2)[nH]c2ccccc12	0.4
CC(C)NC(=O)NC(=O)COc1cccc2c1OC(C)(C)C2	i
Cc1nn(-c2ccccc2)c(N2CCCCC2)c1/C=N/O	0.7
Cc1nc(NCC2CCCO2)c2nnn(Cc3ccccc3)c2n1 (stereo unspecified)	0.2
Cc1ccnc(NS(=O)(=O)c2ccc(NC(=O)Cc3cccs3)cc2)n1	1.3
COc1ccc(C2NC(=S)N(c3ccccc3)C(C)=C2C(=O)Nc2ccccc2)cc1 (stereo unspecified)	i
C(#Cc1ccccc1)CN1CCN(c2ccccn2)CC1	i
COc1ccc(Br)cc1C(=O)Nc1ccc(Cc2ccncc2)cc1	0.2
O=C(NCc1cccs1)c1csc2c1CCCCC2	i
CC1CCC(NC(=O)COc2ccccc2C(N)=O)CC1 (stereo unspecified)	i
CN(C)c1nc(SCCOC(=O)Nc2ccccc2)nc(N(C)C)n1	1.4
CC1CCCN(C(=O)Cn2cnc3c2c(=O)n(C)c(=O)n3C)C1 (stereo unspecified)	0.6
COc1ccc2[nH]c(=O)c(CN(C(=O)COc3ccccc3)C(C)C)cc2c1	2.3
CCCC(=O)Nc1ccccc1N1CCN(C(=O)c2ccccc2)CC1	0.8
CCCCNC(=O)CCc1nc2cccnc2n1Cc1ccc(OC)cc1	0.6
COc1ccc(C2=C(CN(C)C)C(c3ccccc3)c3ccccc3O2)cc1 (stereo unspecified)	i
O=c1c(Cc2ccc(F)cc2)c(O)ccn1Cc1cccc(Cl)c1	i
O=C(CSc1ncnc2ccccc12)NCc1ccco1	5.3
Cc1cc(Nc2ccccc2F)n2ncnc2n1	0.9
O=C(Nc1ccc(Cl)cc1-c1nc2ccccc2s1)c1ccco1	i

19 consecutive records from above, quoted:
SMILES	H5N1 CPE
CCC(c1nnnn1C1CCCCC1)N1CCN(C2CCCC2)CC1 (stereo unspecified)	0.5
Cn1c(C(C#N)/C(=N\S(=O)(=O)c2cccs2)c2ccccc2)nc2ccccc21 (stereo unspecified)	1.1
CCN(CC)S(=O)(=O)C1CCS(=O)(=O)C1 (stereo unspecified)	i
COCCNS(=O)(=O)c1cccc2cccnc12	1.8
COc1ccc(S(=O)(=O)N2CCC(C(=O)Nc3nnc(CCN4CCCCC4)s3)CC2)cc1	0.1
CCN(CCO)Cc1csc2ccc(Br)cc12	7.3
O=C(CCn1c(=O)oc2ccccc21)N1CCN(c2ccccc2Cl)CC1	i
Cc1cc(NC(=O)CC23CC4CC(C2)CC(CC(=O)Nc2cc(C)on2)(C4)C3)no1	0.4
COc1ccccc1NC(=O)CCSc1nnnn1C	i
Cc1nn(Cc2c(F)c(F)c(F)c(F)c2F)c(C)c1NC(=O)c1nn(C)cc1[N+](=O)[O-]	0.6
Cc1ccc(NCCNc2ccc(C)cc2)cc1	i
COc1ccc(CCNC(=O)C(=O)NCc2ccccc2)cc1OC	i
O=C(/C=C/c1ccc2c(c1)OCO2)NCCSCc1ccc(Cl)cc1Cl	i
O=c1c2ccccc2nc(CSc2ncnc3nc[nH]c23)n1-c1ccccc1	0.5
COc1cccc(OCC(=O)Nc2ccccc2C(N)=O)c1	3.0
COc1ccc(NC(=O)c2c(F)c(F)c(F)c(F)c2F)cc1Cl	1.0
O=C(NCCN1CCN(Cc2ccccc2)CC1)C1CC(=O)N(C2CCCC2)C1 (stereo unspecified)	0.0
O=C(/C=C/c1cccc(Cl)c1)Nc1ccncc1	1.6
O=C(NCc1cccnc1)c1cn(-c2ccccc2)nc1-c1cccs1	i

The main list resumes, starting two compounds before the break.
SMILES	H5N1 CPE
Cc1cc(Nc2ccccc2F)n2ncnc2n1	0.9
O=C(Nc1ccc(Cl)cc1-c1nc2ccccc2s1)c1ccco1	i
CCOC(=O)c1ccccc1NC(=O)CSc1nccn1C	0.3
Cc1c(OCC(F)(F)F)ccnc1CSc1nc2ccccc2[nH]1	3.5
O=C(Cn1cnc2ccccc21)Nc1ccc(C(=O)O)cc1	i
COc1ccccc1N(CC(=O)Nc1ccccc1C(=O)NC(C)C)S(C)(=O)=O	0.1
O=S(=O)(NCc1ccc(Cl)cc1)c1ccc(Cl)nc1	1.1
O=C1NC(=Nc2cccc(Cl)c2)SC1Cc1cccc(Cl)c1Cl (stereo unspecified)	i
Cc1onc(-c2c(Cl)cccc2Cl)c1C(=O)N1CCc2ccccc21	1.6
COc1ccc(-c2oc(/N=C/N3CCCC3)c(C#N)c2-c2ccc(OC)cc2)cc1	i
Cc1ccc(SCCNC(=O)c2ccc(C)c(S(=O)(=O)Nc3cccc(C)c3)c2)cc1	i
C/C(Cl)=C/CSc1nnc2n(N)c(=O)c3ccccc3n12	0.8
CS(=O)(=O)N1CCc2cc(S(=O)(=O)N3CCN(Cc4ccc5c(c4)OCO5)CC3)ccc21	3.1
Cc1ccccc1NC(=O)c1nc[nH]c1C(=O)NCc1ccccc1	0.6
CC(C)(C)C(=O)Cn1c(=N)n(Cc2ccccc2Cl)c2ccccc21	i
COc1ccc(NC(=O)c2ccc(C)cc2Cl)c([N+](=O)[O-])c1	i
Cc1ccc(CC(=O)N2CCOCC2)cc1	1.6
Cc1ccc(C(=O)Nc2ncc3c(n2)CC(c2ccco2)CC3=O)cc1 (stereo unspecified)	0.1
CCc1cc2cc3c(cc2nc1SCC(=O)Nc1nccs1)OCO3	0.0
COc1ccc(C(=O)NC2(C(F)(F)F)C(=O)Nc3c2c(=O)[nH]c(=O)n3CCc2ccc(OC)c(OC)c2)cc1 (stereo unspecified)	i
O=C(Nc1ccccc1)c1ccc(N2CCN(c3ccccn3)CC2)c(S(=O)(=O)N2CCOCC2)c1	i
COC(=O)CN(c1ccccc1OC)S(=O)(=O)c1ccccc1	0.7
COc1ccc(Nc2cc(C(=O)NCCCN3CCN(C)CC3)c3ccccc3n2)cc1OC	1.4
CC(C)CNC(=O)c1cccc(NC(=O)C2CCCO2)c1 (stereo unspecified)	0.3
COCc1c(C(=O)OCC(=O)N2c3ccccc3CC2C)oc2ccccc12 (stereo unspecified)	0.3
CN(C)CCCOC(=O)c1ccccc1	0.4
CCCCOC(=O)CSc1nc2c(cc1C#N)C(=O)CC(C)(C)C2	1.8
N#Cc1cc2c(=O)n3ccccc3nc2n(CCCn2ccnc2)c1=N	3.7
CCOC(=O)CN(C(=O)CSc1nnc2c(n1)[nH]c1c(C)cc(C)cc12)c1ccccc1	i
COc1ccc(NC(=O)c2ccco2)cc1NC(=O)c1cccnc1	0.2

Not all compounds are listed; the hit share may differ from the screen's.
